# Myc binder: c-Myc (human) binding; 17,000 tested, 1.5% active; calls only; small molecule microarray, His-c-Myc binding, anti-His fluorescence; P01106;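 active = spot fluorescence over background with P-value below 7% in all four replicate spots, showing protein binding; compounds were printed on slides so no solution concentration is given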;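 note: score is binary with 100 for all four spots passing and 0 otherwise; about 2 pmol printed per array spot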
# Target sequence (P01106 whole entry, looked up): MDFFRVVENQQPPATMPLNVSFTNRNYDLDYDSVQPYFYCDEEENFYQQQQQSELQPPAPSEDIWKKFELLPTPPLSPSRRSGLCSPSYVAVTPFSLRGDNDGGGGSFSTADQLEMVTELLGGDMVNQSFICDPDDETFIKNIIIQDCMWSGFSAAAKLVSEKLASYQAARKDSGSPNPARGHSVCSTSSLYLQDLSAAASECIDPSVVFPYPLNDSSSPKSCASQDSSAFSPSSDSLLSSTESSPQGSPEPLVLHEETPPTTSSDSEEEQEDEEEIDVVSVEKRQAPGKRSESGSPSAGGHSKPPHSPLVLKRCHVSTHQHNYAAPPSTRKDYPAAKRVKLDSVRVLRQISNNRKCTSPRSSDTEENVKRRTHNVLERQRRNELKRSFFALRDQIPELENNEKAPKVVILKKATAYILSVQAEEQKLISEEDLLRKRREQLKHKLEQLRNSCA
# p53 mut binder: binders of human mutant p53. small molecule microarray binding, anti-GST fluorescence. calls only. 17,000 tested, 0.4% active;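 active = compounds whose four printed spots each glow above background more than chance allows, each with a p-value under 7%; compounds were printed on slides so no solution concentration is given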;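 note: about 2 pmol printed per array spot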
# STAT3 SMM: binders of human STAT3 | Small molecule microarray, His-STAT3 binding, anti-His fluorescence | P40763 | 17,000 tested, 0.2% active | calls only;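 active = compounds whose four printed spots each show fluorescence over background unusually high for their array block, chance value under 7%; compounds were printed on slides so no solution concentration is given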;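 note: about 2 pmol printed per array spot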
# ID4 SMM: binds human ID4 protein on microarray; small molecule microarray, Flag-ID4 binding, fluorescence F/B; AID 624137; calls only; P47928; 31,000 tested, 1.2% active;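 active = spot signal over background at p below 0.07 in all four prints; compounds were printed on slides so no solution concentration is given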;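 note: a binder raises fluorescence above local background on the spot; about 2 pmol printed per array spot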
# Target sequence (P47928 whole entry, looked up): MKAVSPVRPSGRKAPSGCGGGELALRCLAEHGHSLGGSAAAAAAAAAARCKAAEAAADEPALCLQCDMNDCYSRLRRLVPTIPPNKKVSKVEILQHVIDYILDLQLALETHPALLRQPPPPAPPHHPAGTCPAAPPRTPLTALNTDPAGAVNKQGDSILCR
# Calls only; i = inactive; x = not tested or not shown; + = active, no number. Random draw from the library; 3.7% or so of the library scored in one or more.
# Below each SMILES: STAT3 SMM	p53 mut binder	ID4 SMM	Myc binder
1	C[C@@H]1CN([C@H](C)CO)C(=O)Cc2cc(NS(=O)(=O)c3ccccc3)ccc2O[C@H]1CN(C)S(=O)(=O)c1cccs1
  i	i	i	i
2	C[C@@H]1CCCCO[C@@H](CN(C)C(=O)Nc2cccc3ccccc23)[C@H](C)CN([C@@H](C)CO)C(=O)c2cc(NS(=O)(=O)c3cccs3)ccc2O1
  i	i	x	i
3	CC(C(=O)Nc1sc2c(c1C#N)CCC2)n1cc([N+](=O)[O-])cn1 (configuration not stated)
  i	i	i	i
4	CCC(C)N1CCC2(CC1)N=c1c(c3c4c5c(C)c(O)c3c(O)c1=NC(=O)/C(C)=C\C=C[C@H](C)[C@H](O)[C@@H](C)[C@@H](O)[C@@H](C)[C@H](OC(C)=O)[C@H](C)[C@@H](OC)/C=C\O[C@@](C)(O5)C4=O)N2 (some centres not stated)
  i	i	x	i
5	Cc1cccnc1NCC(O)COc1ccccc1 (configuration not stated)
  i	i	+	i
6	O=C(NCc1nc2ccccc2[nH]1)C1=C[C@H](c2ccc3c(c2)OCO3)C[C@H](OCc2ccc(CO)cc2)O1
  i	i	x	i
7	C[C@H](CO)N1C[C@H](C)[C@H](CN(C)C(=O)Nc2cccc3ccccc23)Oc2c(NS(=O)(=O)c3cn(C)cn3)cccc2C1=O
  i	i	i	i
8	C[C@@H]1CN([C@@H](C)CO)C(=O)c2cc(NS(=O)(=O)c3ccc(Cl)cc3)ccc2O[C@H]1CN(C)Cc1ccc(Cl)c(Cl)c1
  i	i	x	i
9	C[C@H]1CN([C@@H](C)CO)C(=O)c2cc(NC(=O)Nc3ccc4c(c3)OCO4)ccc2O[C@H]1CN(C)CC1CCCCC1
  i	i	i	i
10	COc1ccc(-c2cc(=O)c3cc(OCC(=O)Nc4ccc(C)cc4C)ccc3o2)cc1
  i	i	i	i
11	C[C@@H]1CN([C@H](C)CO)C(=O)c2cccc(NC(=O)c3ccncc3)c2O[C@H]1CN(C)Cc1ccncc1
  i	i	x	i
12	C[C@@H]1CN([C@@H](C)CO)C(=O)c2cccc(NS(C)(=O)=O)c2O[C@@H]1CN(C)C
  i	i	i	i
13	C[C@@H]1CN([C@@H](C)CO)C(=O)c2cc(N(C)C)ccc2O[C@@H](C)CCCCO[C@@H]1CN(C)C(=O)Nc1cccc2ccccc12
  i	i	i	i
14	C[C@@H]1CN([C@H](C)CO)C(=O)c2cc(NS(C)(=O)=O)ccc2O[C@@H](C)CCCCO[C@H]1CN(C)C(=O)Nc1ccc2c(c1)OCO2
  i	i	i	i
15	C[C@@H]1CN([C@@H](C)CO)C(=O)c2cccc(NC(=O)Nc3ccc(C(F)(F)F)cc3)c2O[C@H]1CN(C)C(=O)NC1CCCCC1
  +	i	i	i
16	Cc1noc(C)c1NC(=O)N(C)C[C@@H]1Oc2ccc(NC(=O)CCCN(C)C)cc2C(=O)N([C@H](C)CO)C[C@H]1C
  i	i	i	i
17	COc1ccc(OCC(=O)Nc2ccc(NC(=O)c3ccccc3Cl)c(OC)c2)cc1
  i	i	i	i
18	O=c1cc(-c2ccc(O)cc2)oc2c(C3OCC(O)C(O)C3O)c(O)c(C3OC(CO)C(O)C(O)C3O)c(O)c12 (configuration not stated)
  i	i	i	i
19	C[C@@H]1CN([C@@H](C)CO)C(=O)Cc2cc(NC(=O)Nc3ccc4c(c3)OCO4)ccc2O[C@@H]1CN(C)C(=O)Nc1cccc2ccccc12
  i	i	i	i
20	COC(=O)c1cn(CC(=O)N2CCN(C)CC2)nn1
  i	i	i	i

# Compound profiles, as listed above. Values in the order: STAT3 SMM, p53 mut binder, ID4 SMM, Myc binder
# `C[C@@H]1CN([C@H](C)CO)C(=O)c2cccc(NC(=O)c3ccncc3)c2O[C@H]1CN(C)Cc1ccncc1` in the list: i, i, x, i
# `COc1ccc(OCC(=O)Nc2ccc(NC(=O)c3ccccc3Cl)c(OC)c2)cc1` in the list: i, i, i, i
# `C[C@@H]1CCCCO[C@@H](CN(C)C(=O)Nc2cccc3ccccc23)[C@H](C)CN([C@@H](C)CO)C(=O)c2cc(NS(=O)(=O)c3cccs3)ccc2O1` in the list: i, i, x, i
# `Cc1noc(C)c1NC(=O)N(C)C[C@@H]1Oc2ccc(NC(=O)CCCN(C)C)cc2C(=O)N([C@H](C)CO)C[C@H]1C` in the list: i, i, i, i

# Other entries follow.
# Below each SMILES: STAT3 SMM	p53 mut binder	ID4 SMM	Myc binder
21	N#C/C(=C\c1ccc(O)c(O)c1)C(=O)Nc1ccccc1
  i	i	x	i
22	Cc1ccc(S(=O)(=O)c2nc(SCC(=O)c3ccc(Cl)cc3)sc2Cl)cc1
  i	i	i	i
23	C[C@@H]1CCCCO[C@@H](CN(C)S(=O)(=O)c2ccccc2)[C@@H](C)CN([C@H](C)CO)C(=O)c2cc(NS(C)(=O)=O)ccc2O1
  i	i	i	i
24	C[C@@H]1CN([C@@H](C)CO)C(=O)c2cc(NC(=O)c3ccncc3)ccc2O[C@H]1CN(C)CC1CCCCC1
  i	i	x	i
25	O=C(C1=C[C@H](c2ccc(C(F)(F)F)cc2)C[C@H](OCCCCO)O1)N1CCOCC1
  i	i	i	i
26	CC(=O)n1cc([C@H]2C=C(C(=O)N3CCOCC3)O[C@@H](OCc3ccc(CO)cc3)C2)c2ccccc21
  i	i	x	i
27	Cc1ccc(S(=O)(=O)Nc2ccc3c(c2)CC(=O)N([C@H](C)CO)C[C@@H](C)[C@H](CN(C)C(=O)Nc2c(C)noc2C)O3)cc1
  i	i	i	i
28	C[C@H](CO)N1C[C@H](C)[C@H](CN(C)C(=O)Nc2ccccc2)Oc2ccc(NC(=O)Cc3cn(C)c4ccccc34)cc2C1=O
  i	i	i	i
29	CC(C)NC(=O)Nc1ccc2c(c1)CC(=O)N([C@H](C)CO)C[C@@H](C)[C@@H](CN(C)Cc1ccc(-c3ccccc3)cc1)O2
  i	i	i	i
30	C[C@@H]1CN([C@@H](C)CO)C(=O)c2cc(NC(=O)C3CC3)ccc2O[C@H]1CN(C)C(=O)Nc1ccc(F)cc1
  i	i	i	i
31	COc1ccc(S(=O)(=O)Nc2cccc3c2O[C@H](CN(C)S(=O)(=O)c2cn(C)cn2)[C@H](C)CN([C@@H](C)CO)C3=O)cc1
  i	i	i	i
32	C=CCN1C(=S)N[C@@H]2c3ccccc3O[C@@]1(C)[C@@H]2CO
  i	i	x	i
33	O=C(NCc1ccccn1)Nc1ccc(F)cc1F
  i	i	i	i
34	C[C@@H]1CN([C@H](C)CO)C(=O)Cc2cc(N(C)C)ccc2O[C@@H]1CN(C)C(=O)Nc1ccccc1
  i	i	i	i
35	C[C@H](CO)N1C[C@H](C)[C@H](CN(C)S(=O)(=O)c2cn(C)cn2)Oc2ccc(NC(=O)C3CC3)cc2C1=O
  i	i	i	i
36	CC1CCCC2OC2C(=O)c2c(O)cc(O)cc2CC(=O)O1 (configuration not stated)
  i	i	i	i
37	C[C@H](CO)N1C[C@H](C)[C@H](CN(C)S(=O)(=O)c2ccccc2)Oc2ncc(-c3cc4ccccc4o3)cc2C1=O
  i	i	x	i
38	c1ccc(-c2noc(CSc3nnc(C4CC4)n3-c3ccccc3)n2)cc1
  i	i	i	i
39	C[C@H](CO)N1C[C@H](C)[C@@H](CN(C)S(=O)(=O)c2cn(C)cn2)Oc2ccc(NC(=O)CCN3CCOCC3)cc2CC1=O
  i	i	i	i
40	OC[C@H]1O[C@@H](n2cnc3c(N[C@H]4CCC[C@@H]4O)ncnc32)[C@H](O)[C@@H]1O
  i	i	i	i

# Next part
# Below each SMILES: STAT3 SMM	p53 mut binder	ID4 SMM	Myc binder
41	O=C1c2cc(O)cc(O)c2C(=O)c2c(O)cc(CO)cc21
  i	i	i	i
42	C[C@@H]1CN([C@H](C)CO)C(=O)CCCn2cc(nn2)CO[C@@H]1CN(C)C(=O)Cc1ccccc1
  i	i	i	i
43	COc1ccccc1Nc1nc(N)nc(-c2oc3ccccc3c2C)n1
  i	i	i	i
44	CC1OC(O[C@H]2[C@@H](O)C[C@@]3(C)C(CC[C@]4(C)C3CC=C3[C@@H]5CC(C)(C)CC[C@]5(C(=O)OC5OC(C)C(OC6OCC(OC7OCC(O)C(OC8OCC(O)C(O)C8O)C7O)C(O)C6O)C(O)C5O)CC[C@]34C)[C@]2(C)CO)C(O)C(OC2OC(CO)C(O)C(O)C2O)C1O (some centres not stated)
  i	i	i	i
45	C[C@@H]1CN([C@H](C)CO)C(=O)c2cccc(NS(=O)(=O)c3cccs3)c2O[C@H]1CN(C)Cc1ccc(C(F)(F)F)cc1
  i	i	i	i
46	C[C@@H]1CN([C@@H](C)CO)C(=O)c2cccc(NC(=O)NC3CCCCC3)c2O[C@H]1CN(C)S(=O)(=O)c1ccc(Cl)cc1
  i	i	i	i
47	CCOC(=O)Cc1cc(-c2ccccc2O)nc2ccc3ccccc3c12
  i	i	i	i
48	c1ccc(-c2ccc(OCCCCSc3ncccn3)cc2)cc1
  i	i	i	i
49	CC(=O)c1cccc(NC(=O)CN(Cc2ccccc2)S(C)(=O)=O)c1
  i	i	i	i
50	Cc1nc(-c2ccccc2O)n(S(=O)(=O)N(C)C)n1
  i	i	i	i
51	C[C@H]1OC(=O)c2c(O)ccc(O)c2[C@H]1O
  i	i	x	i
52	Cc1ccc(CN(CC(=O)O)S(=O)(=O)c2c(C)cc(C)cc2C)cc1
  i	i	i	i
53	Cc1noc(C)c1NC(=O)N(C)C[C@H]1OCCCC[C@@H](C)Oc2ccc(NC(=O)CCC(F)(F)F)cc2C(=O)N([C@H](C)CO)C[C@@H]1C
  i	i	i	i
54	C[C@@H]1CN([C@@H](C)CO)C(=O)Cc2cc(NS(=O)(=O)c3cccs3)ccc2O[C@H]1CN(C)CC1CC1
  i	i	i	i
55	O=C(OCc1cccc(C(=O)c2ccccc2)c1)c1ccc(-c2nnc(-c3ccccc3)o2)cc1
  i	i	i	i
56	C[C@@H]1CN([C@H](C)CO)C(=O)Cc2cc(NC(=O)Nc3ccccc3)ccc2O[C@@H]1CN(C)C(=O)Nc1ccc(F)cc1
  i	i	i	i
57	C[C@@H]1CN([C@@H](C)CO)C(=O)c2cccc(NS(=O)(=O)c3cn(C)cn3)c2O[C@H]1CN(C)C(=O)Nc1cccc2ccccc12
  i	i	i	i
58	C=C1C(=O)O[C@H]2C1[C@H](OC(=O)/C(=C/CO)COC(=O)/C(C)=C/CO)CC(=C)[C@@H]1CC(=O)[C@@H](C)[C@@H]12 (some centres not stated)
  i	i	x	i
59	COc1ccc(NC(=O)Nc2cccc3c2O[C@H](CN(C)C(=O)Nc2ccccc2)[C@@H](C)CN([C@@H](C)CO)C3=O)cc1
  i	i	i	i
60	C[C@H]1CN([C@@H](C)CO)C(=O)c2cc(N(C)C)ccc2O[C@H]1CN(C)C(=O)Nc1ccc(F)cc1
  i	i	i	i

# New compounds follow.
# Below each SMILES: STAT3 SMM	p53 mut binder	ID4 SMM	Myc binder
61	COc1cc(=O)n(C)c2c(OCC(O)C(C)(C)O)cccc12 (configuration not stated)
  i	i	i	i
62	COc1ccc(N(C(C)=O)S(=O)(=O)c2cc(OC)ccc2OC)cc1
  i	i	i	i
63	C[C@@H]1CN([C@H](C)CO)C(=O)c2cc(NC(=O)NC3CCCCC3)ccc2O[C@@H]1CN(C)Cc1ccncc1
  i	i	i	i
64	CC(=O)c1ccc(-n2c(CCC(=O)O)ccc2-c2cccs2)cc1
  i	i	i	i
65	Cc1noc(C)c1NC(=O)Nc1ccc2c(c1)C(=O)N([C@H](C)CO)C[C@H](C)[C@H](CN(C)C(=O)NC(C)C)OCCCC[C@@H](C)O2
  i	i	i	i
66	C[C@H]1CN([C@@H](C)CO)C(=O)c2cc(NC(=O)NC3CCCCC3)ccc2O[C@H]1CN(C)C(=O)Nc1ccccc1
  i	i	i	i
67	COc1cc(C(=O)N(Cc2ccco2)c2ccc(O)cc2)cc(OC)c1OC
  i	i	i	i
68	C[C@@H]1CN([C@H](C)CO)C(=O)c2cc(NS(=O)(=O)c3cccs3)ccc2O[C@@H]1CN(C)C(=O)Nc1ccc2c(c1)OCO2
  i	i	i	i
69	C[C@@H]1CCCCO[C@H](CN(C)C)[C@H](C)CN([C@@H](C)CO)C(=O)c2cc(NC(=O)C3CCCCC3)ccc2O1
  i	i	i	i
70	Cc1noc(C)c1NC(=O)Nc1ccc2c(c1)C(=O)N([C@H](C)CO)C[C@H](C)[C@@H](CN(C)C)O2
  i	i	i	i
71	C[C@H]1CCCCO[C@H](CN(C)S(C)(=O)=O)[C@@H](C)CN([C@@H](C)CO)C(=O)c2cc(NS(=O)(=O)c3ccccc3)ccc2O1
  i	i	i	i
72	O=C(NCc1ccco1)C1c2ccccc2Oc2ccccc21
  i	i	i	i
73	Cc1ccccc1OCC(=O)Nc1cc(-c2nc3ccccc3s2)ccc1Cl
  i	i	i	i
74	Cn1c(SCC(=O)NC(C)(C)C)nnc1-c1ccco1
  i	i	i	i
75	Cc1ccc(S(=O)(=O)NCCCO)cc1C(=O)O
  i	i	+	i
76	Cc1noc(C)c1S(=O)(=O)Nc1cccc2c1O[C@H](CN(C)C(=O)Nc1ccc(F)cc1)[C@H](C)CN([C@@H](C)CO)C2=O
  i	i	i	i
77	C[C@@H]1CCCCO[C@@H](CN(C)Cc2ccncc2)[C@H](C)CN([C@H](C)CO)C(=O)c2cc(NC(=O)c3ccncc3)ccc2O1
  i	i	i	i
78	Cc1cc(C)c(S(=O)(=O)Nc2ccccc2C(F)(F)F)c(C)c1
  i	i	i	i
79	C[C@H]1CN([C@@H](C)CO)C(=O)c2cc(NS(=O)(=O)c3cn(C)cn3)ccc2O[C@H]1CN(C)C(=O)NC1CCCCC1
  i	i	i	i

# Source: PubChem BioAssay
